High-throughput results from PubChem BioAssay.
HIV Env fusion – blocks HIV Env-driven cell-cell fusion; inhibition, % at 12.3 µM; AID 651610; HeLa-JRFL Env/CEM21 cell fusion, luciferase; hit rate 1.1% among 360,000;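 active = mean replicate inhibition score of at least 50 and every replicate individually at or above 50; inconclusive = only one of the two criteria met; inactive = mean below 50 and not all replicates reaching 50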;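 also: 0% = plate neutral controls and 100% = maraviroc near 300 nM; one replicate is shown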
CSC inhib – blocks cancer stem cells; hit rate 1.1% among 300,000; inhibition, % at 7.5 µM; cancer stem cell-like cells viability, luminescence;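 active = mean at 75% or more and at least half the replicates too; inconclusive = mean and replicates disagree; tested in HMLE shEcad cells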;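 also: 0% = median of negative and 100% = median of positive control wells; the first replicate is given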
eIF4H inh – inhibitors of RNA binding by human eIF4H. Q15056. eIF4H fluorescence polarization binding assay. inhibition, % at 35 µM. hit rate 0.94% among 290,000. AID 2012;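 active = 50% or more with normal probe brightness, or confirmed in later tests; inconclusive = above 50% with abnormal brightness, or retests that disagree; inactive = below 50% or failed in later tests; about a fifth of its hits are not listed in these tables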;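 also: calls also rest on retests at 20 µM and on dose response follow-up; 0% = protein and probe with vehicle and 100% = probe without protein; strong numbers were not always called active; many hits fall short of the cut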
Rce1 inh – blocks yeast Ras-converting enzyme; yeast membranes, quenched prenylated peptide cleavage fluorescence; Q03530; hit rate 0.27% among 290,000; calls only;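 active = fall in fluorescence gain of 50% or more versus controls, with final raw signal at or below 3038400; inconclusive = same 50% fall but final raw signal above 3038400; inactive = fall in fluorescence gain under 50%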;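 also: plate controls were neutral control wells for no effect and wells lacking membranes for full effect; tested at 10 µM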
Target sequence (Q03530 whole entry, looked up): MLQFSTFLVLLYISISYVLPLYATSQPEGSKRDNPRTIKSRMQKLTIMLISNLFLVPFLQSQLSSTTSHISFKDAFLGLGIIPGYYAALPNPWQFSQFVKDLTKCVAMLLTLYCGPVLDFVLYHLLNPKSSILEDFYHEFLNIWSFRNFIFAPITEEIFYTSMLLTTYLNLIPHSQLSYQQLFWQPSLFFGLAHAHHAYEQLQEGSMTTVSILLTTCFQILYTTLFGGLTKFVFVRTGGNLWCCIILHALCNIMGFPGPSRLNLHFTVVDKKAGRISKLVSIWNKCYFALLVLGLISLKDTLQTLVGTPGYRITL
MT1-MMP act inh – blocks activation of human MT1-MMP. HT1080 RFP-PRO-GFP cells, GFP/RFP ratio fluorescence, overnight; percent of plate control window, DMSO zero. P50281. GFP/RFP ratio change, % at 20 µM. hit rate 0.061% among 360,000;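 active = GFP/RFP ratio change of at least 30% with cell ATP level not reduced by more than half and red fluorescence within 50% of control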; also: strong numbers were not always called active
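Assay system: HT1080 cells carrying an RFP-PRO-GFP reporter | Dosing: Single dose of 20 µM compound, 1% DMSO final | Incubation: Cells overnight before dosing, compound overnight, 37 °C, 5% CO2 | Evaluation: GFP/RFP fluorescence ratio | Control set: DMSO and RFP-L50D-GFP cell wells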
PABP FP inh – PABP-poly(A) binding inhibition | P11940 | PABP-poly(A) RNA binding, fluorescence polarization | inhibition, % at 35 µM | hit rate 1% among 290,000 | AID 2014;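 active = 50% or more with normal probe brightness, or confirmed in later tests; inconclusive = above 50% with abnormal brightness, or retests that disagree; inactive = below 50% or failed in later tests; about a fifth of its hits are not listed in these tables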;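 also: calls also rest on retests at 20 µM and on dose response follow-up; controls were probe without protein and protein plus probe with vehicle; some compounds called inactive have numbers as strong as hits; many hits fall short of the cut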
Target sequence (P11940 whole entry, looked up): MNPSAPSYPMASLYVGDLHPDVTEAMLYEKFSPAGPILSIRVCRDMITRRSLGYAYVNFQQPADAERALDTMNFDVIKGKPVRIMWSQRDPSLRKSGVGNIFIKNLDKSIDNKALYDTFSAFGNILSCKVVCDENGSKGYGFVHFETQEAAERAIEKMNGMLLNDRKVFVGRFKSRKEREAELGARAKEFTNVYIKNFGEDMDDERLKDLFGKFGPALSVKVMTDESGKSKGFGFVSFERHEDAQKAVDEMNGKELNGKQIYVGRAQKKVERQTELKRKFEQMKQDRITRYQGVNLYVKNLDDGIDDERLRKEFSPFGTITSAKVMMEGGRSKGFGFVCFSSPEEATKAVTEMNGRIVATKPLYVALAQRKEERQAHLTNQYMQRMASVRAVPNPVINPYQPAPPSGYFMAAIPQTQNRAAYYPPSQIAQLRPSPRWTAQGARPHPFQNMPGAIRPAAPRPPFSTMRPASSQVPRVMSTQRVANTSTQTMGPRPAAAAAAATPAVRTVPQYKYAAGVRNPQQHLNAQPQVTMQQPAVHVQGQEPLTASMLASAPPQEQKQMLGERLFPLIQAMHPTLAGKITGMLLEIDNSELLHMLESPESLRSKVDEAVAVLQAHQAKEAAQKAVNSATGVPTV
Yeast UUG start – alters start codon recognition fidelity in yeast; S. cerevisiae UUG-firefly luciferase reporter, luminescence/redox ratio; activity score, % at 18.7 µM; hit rate 0.13% among 350,000;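 active = replicate mean at a twofold rise or more, about +100% in these data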;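 also: firefly luciferase made from a UUG start codon reports start codon fidelity; reporter light over untreated wells divided by growth signal over untreated wells; some hits fall short of that in this replicate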
eIF4H inh retest – also measured in eIF4H inh; calls as there; inhibition, %; compound at 20 µM; confirmation average;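 mean of two retest wells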
PABP FP inh retest – recorded beside PABP FP inh, whose call it bears; inhibition, %; compound at 20 µM; confirmation repeats;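 mean of two retest wells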
MT1-MMP act inh RFP – also measured in MT1-MMP act inh; calls as there; RFP signal change, %; measured here: RFP expression control read;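 0 = vehicle wells; hits needed this value within 50% of zero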
Active calls of the source: *; i = inactive; ? = inconclusive; / = no result given; & = joins results of further samples; [ ] = dose if it differs, or a comment. These rows are one share of the data, so the mix of outcomes need not match the whole.

SMILES	HIV Env fusion	CSC inhib	eIF4H inh	Rce1 inh	MT1-MMP act inh	MT1-MMP act inh RFP	PABP FP inh	Yeast UUG start	others
O=C(Nc1ccccc1)c1ccncc1	-23.7	-16.6	-3.9	i	0.5	3.7	7.9	-12.7
O=C(Nc1ccc2c(c1)OCO2)c1cccc2c1C(=O)N(Cc1cccnc1)C2	-22.7	-8.2	52.2	i	-5.5	-4.3	7.8	-26.4	eIF4H inh retest=17.9;PABP FP inh retest=7.7
O=C(NCC1CCCCC1)c1cccnc1	-6.7	-22.2	-0.5	i	0.1	-0.3	16.4	-14.2
CCOc1cc(/C=N/Nc2ncnc(Cl)c2N)ccc1O	-10.3	-13.2	12.6	i	5.4	2.7	?	-17.0
COc1ccc(CN2CCC(CNC(=O)NC3CCCCC3)CC2)cc1	/	12.2	-3.5	i	6.4	6.6	3.2	-14.1
O=C(C1=C[C@@H](c2csc3ccccc23)C[C@@H](OCc2ccc(CO)cc2)O1)N1CCN(Cc2ccc3c(c2)OCO3)CC1	-24.1[16.7 µM]	62.0	-2.5	i	-6.6	-7.8	3.9	-0.8&-0.5&-10.2
Cc1cccc(N(CC(=O)NCCSCc2ccccc2)S(C)(=O)=O)c1	23.4	-4.4	6.9	i	-1.6	1.1	11.1	46.8
CC1(C)CC(=O)C=C(N2CCOCC2)C1	-3.5	2.0	-5.4	i	-0.9	3.6	-10.0	-7.3
O=C(NCC1CCCO1)c1onc(CSc2cccc3ccccc23)c1C(=O)O (stereo unspecified)	11.8	-8.2	-14.3	i	-1.6	0.7	4.1	-11.2
O=C(C[n+]1ccc(C(=O)c2ccccc2)cc1)Nc1ccc(C(F)(F)F)cc1	-2.1	0.1	0.3	i	-4.2	-0.2	5.1	1.1
Cc1ccc(S(=O)(=O)c2ccc(Cl)cc2)cc1S(=O)(=O)N1CCOCC1	-27.2	-5.9	-2.7	i	-2.1	-7.2	0.3	-1.4
O=C(C[N+]1(CC#Cc2ccccc2)CCOCC1)c1ccccc1	-17.4	9.7	-3.9	i	-0.1	3.5	-7.3	/
CN(C)c1ccc(N/C(=N\S(=O)(=O)c2cccs2)c2ccccc2)cc1	-11.1	-6.3	5.5	i	-6.7	-2.3	-5.5	-2.8
CC(=O)c1sc(NC(=O)c2ccc(F)c(F)c2)nc1C	-133.5	/	-0.8	i	-1.6	-0.2	-8.7	-13.1
Cc1ncoc1C(=O)Nc1ccccc1-c1ccccc1	-2.3	2.1	-4.8	i	0.8	2.9	-2.1	-13.3
O=C(N/N=C/c1ccccc1[N+](=O)[O-])c1ccc2c(c1)OCCO2	-31.5	25.2	-12.0	i	2.7	-2.3	8.5	/
CC(=O)C1=C(O)C(=O)N(C)C1c1ccccc1[N+](=O)[O-] (stereo unspecified)	-8.2	-6.2	-17.2	i	-4.1	8.7	0.1	/
C/C(=N\NC(=O)c1ccc(Cl)cc1)c1ccccn1	-25.9	98.1*	25.2	i	9.2	-4.6	-8.4	1.9
COc1cc(CNn2cn[nH]c2=S)ccc1OCC(=O)NC(C)(C)C	11.3	-13.6	-10.4	/	1.2	-0.7	4.1	-0.8
Cc1ccc(C(=O)N2c3ccccc3OCC2C)cc1 (stereo unspecified)	12.9	-11.1	-4.7	i	-2.2	-1.1	-1.2	-10.8
Cc1ccc(C(=O)Nc2ncccc2O)o1	-11.4	-16.8	/	i	5.6	4.4	/	-1.9
O=C(NCc1cccnc1)Nc1ccccc1	0.2	4.6	-2.7	i	-2.9	2.8	2.8	-9.9
O=C1c2cccc3cccc(c23)C(=O)N1c1ccncc1	-110.1	-13.5	-4.6	/	0.5	-6.3	-27.1	-4.3
COc1ccc(NC(=O)CCNS(=O)(=O)c2cccc3nsnc23)c(OC)c1	-7.5	-2.8	3.3	i	2.8	4.1	6.7	-13.4
O=C(NCc1nnnn1-c1ccc(Cl)cc1)c1ccc2c(c1)OCO2	-22.9	/	/	/	3.0	0.9	/	-21.5
The listing continues.
SMILES	HIV Env fusion	CSC inhib	eIF4H inh	Rce1 inh	MT1-MMP act inh	MT1-MMP act inh RFP	PABP FP inh	Yeast UUG start	others
Cc1cccn2c(=O)c(C=O)c(Nc3ccccc3)nc12	/	-13.8	5.5	i	-3.8	2.2	9.6	-10.0
O=C(NCc1ccccc1)c1cc(S(=O)(=O)N2CCOCC2)ccc1F	/	-13.7	-4.0	i	-1.0	4.9	6.2	-7.1
Cc1nc2c(sc3nc(N4CCOCC4)c4c(c32)CC(C)(C)OC4)c(-c2ccccc2)c1C(=O)O	10.8	?	35.3	i	-11.5	-10.2	-19.4	/
COCCSc1nnc(NC(=O)c2ccc(NC(C)=O)cc2)s1	-7.3	-2.7	-5.5	i	1.1	4.5	-1.3	0.2
COc1ccc(NC(=O)COC(=O)CCC2CCCC2)c(OC)c1	-0.2	-12.2	/	/	0.5	2.3	/	-38.1
Cc1cc(OCc2cc(C(=O)N(C)C(C)c3ccccn3)no2)cc(C)c1Cl (stereo unspecified)	-14.7	37.4	2.3	i	-0.5	-5.5	-0.4	-14.0
CNc1snc(C)c1C(=O)OC(C)C(=O)Nc1ccccc1 (stereo unspecified)	/	-0.8	/	/	-1.7	-9.7	/	-9.3
CC(=O)SCCC(=O)N1C(C)CCCC1C(=O)O (stereo unspecified)	/	-4.7	-12.5	i	-4.8	-3.7	-5.7	-8.7
CC1CCCC(C)N1S(=O)(=O)c1ccc(NC(=O)CNCC2CCCO2)cc1 (stereo unspecified)	7.6	-7.2	1.3	i	-0.6	0.4	9.0	-7.1
CN(C(=O)COC(=O)c1cccc(F)c1)c1ccccc1	-6.8	-1.9	-1.5	i	3.6	4.8	-1.0	-0.3
Cc1c(F)cccc1NC(=O)c1ccc2c(c1)CCN2S(C)(=O)=O	10.1	-9.6	-4.9	i	2.1	4.0	-1.2	-24.6
CCCNC(=O)Cn1nc(C(F)(F)F)c2c1CCCC2	-6.4	-3.5	-14.3	i	4.9	6.2	0.9	-11.9
CCc1ccc(NC(=O)CCC(=O)N2CCSc3ccccc32)cc1	-1.3	13.9	-5.7	i	4.3	4.0	5.5	-12.0
Cc1ccc(Cl)cc1N1CCN(CC(=O)NC2CCCc3ccccc32)CC1 (stereo unspecified)	7.9	78.5*	0.6	i	-8.1	-7.0	-3.7	/
CC1=C(C)C(=O)N(C(C)CCc2ccccc2)C1=O (stereo unspecified)	-38.5	-9.4	-0.1	i	-2.1	-0.6	1.1	-5.6
Cn1c(CCN2CCN(c3ccccc3)CC2)nc2cc(NC(=O)c3ccco3)ccc21	9.7	-4.0	-1.7	i	0.1	-3.1	-1.3	-4.8
CCOc1ccc(C(=O)CCC(=O)N2CCN(c3ncccn3)CC2)cc1	9.7	3.3	38.0	i	-12.9	-3.3	-6.7	-18.9
COc1ccc(OC)c(CNC(=O)C(C)n2nc(C)c3c(C)n(-c4ccccc4)nc3c2=O)c1 (stereo unspecified)	9.0	-3.0	-16.7	i	2.2	-13.4	11.9	2.1
CCN(CC)S(=O)(=O)c1cc(Br)ccc1OC	-47.9	-8.6	0.7	i	-0.6	3.9	5.4	11.1
CC(=O)c1c(C)[nH]c(C(=O)N2CCN(S(=O)(=O)c3ccc(C)cc3C)CC2)c1C	-8.8	-15.1	/	/	2.9	-10.2	/	35.4
O=C(c1ccccc1F)N1CCCC(c2ccccc2)C1 (stereo unspecified)	/	-10.8	-9.4	i	-3.8	-0.5	-0.7	9.5
COc1ccc(-c2cc(C)no2)cc1S(=O)(=O)NCCCN(C)Cc1ccccc1	0.0	5.4	0.4	i	4.3	3.4	0.1	-7.9
O=C(N/N=C/c1ccccn1)c1cc(-c2ccncc2)nc2ccccc12	-9.8	31.1	67.5	i	-0.9	-1.9	-6.5	/	eIF4H inh retest=2.8;PABP FP inh retest=0.5
CCCC/C(O)=C/c1nc2ccccc2[nH]c1=O	/	/	-1.3	i	2.2	10.7	-2.3	-5.5
CCN(CC(N)=O)S(=O)(=O)c1ccc(Br)cc1	/	-44.9	-0.3	i	2.6	-0.5	-8.9	-31.9

Molecules from the list above that contain a COOH group (three):
SMILES	HIV Env fusion	CSC inhib	eIF4H inh	Rce1 inh	MT1-MMP act inh	MT1-MMP act inh RFP	PABP FP inh	Yeast UUG start	others
O=C(NCC1CCCO1)c1onc(CSc2cccc3ccccc23)c1C(=O)O (stereo unspecified)	11.8	-8.2	-14.3	i	-1.6	0.7	4.1	-11.2
Cc1nc2c(sc3nc(N4CCOCC4)c4c(c32)CC(C)(C)OC4)c(-c2ccccc2)c1C(=O)O	10.8	?	35.3	i	-11.5	-10.2	-19.4	/
CC(=O)SCCC(=O)N1C(C)CCCC1C(=O)O (stereo unspecified)	/	-4.7	-12.5	i	-4.8	-3.7	-5.7	-8.7

(more compounds)
SMILES	HIV Env fusion	CSC inhib	eIF4H inh	Rce1 inh	MT1-MMP act inh	MT1-MMP act inh RFP	PABP FP inh	Yeast UUG start	others
COc1ccc(OC)c2sc(NNC(=O)C3COc4ccccc4O3)nc12 (stereo unspecified)	-7.1	-20.6	7.4	i	8.1	11.2	0.9	/
CCCOc1ccc(F)cc1-c1cc(C(=O)Nc2cc(OC)ccc2OC)[nH]n1	-4.6	/	/	/	-0.8	-1.9	/	-16.3
Cc1cc(C)n(-c2cccc(F)n2)n1	10.8	/	-5.3	i	2.0	4.7	8.6	/
CN(C)c1ccc(C(CN)c2c[nH]c3ccccc23)cc1 (stereo unspecified)	-24.8	-4.2	27.1	i	-3.8	-1.2	3.3	1.3
O=C1c2ccc([N+](=O)[O-])cc2S(=O)(=O)N1Cc1ccccc1	-6.9	3.1	-0.8	i	1.8	-2.8	-2.3	-18.7
CCCc1cc2c(cc1NC(=O)c1ccco1)OCO2	9.5	/	-0.9	i	-0.5	2.6	-13.5	/
COc1ccc(S(=O)(=O)N(C)C[C@H]2Oc3ccc(NC(=O)Nc4c(C)noc4C)cc3C(=O)N([C@H](C)CO)C[C@@H]2C)cc1	-7.2	-12.6	/	/	-3.9	3.1	/	3.1&-1.7
c1ccc(-c2ccc3nnnn3n2)cc1	-6.5	-3.2	-7.3	/	4.7	5.2	-3.2	/
CCCN=CC1=C(O)CC(c2ccccc2)CC1=O (stereo unspecified)	5.3	-13.1	-0.7	i	-0.3	-1.3	-7.8	/
O=C(COc1ccc(Br)cc1)NCCNC(=O)c1ccccn1	-7.2	-10.8	9.3	i	-2.4	-2.0	7.4	-12.0
CN(Cc1nc(-c2ccc(Cl)cc2)no1)C(=O)c1ccc2c(c1)OCO2	/	-6.4	/	i	3.4	5.8	/	5.1
C[C@@]12CCC[C@H](O1)[C@@H]([C@H](O)c1ccccc1)O2	-23.3	2.9	/	/	-1.3	4.1	/	8.1
CCCN1CCN(C(=O)Cn2cnc3sc(C)c(S(=O)(=O)N4CCC(C)CC4)c3c2=O)CC1	6.9	-12.2	-4.1	/	-0.5	-1.2	2.0	-16.8
CC(C)C(=O)N(c1cc2sc(=O)oc2c2ccccc12)S(=O)(=O)c1cccs1	/	/	-1.9	i	-8.7	-0.6	0.3	-23.1
CCOC(=O)c1cc(-c2ccccc2)sc1NC(=O)COC(=O)c1ccc(Cl)c(S(N)(=O)=O)c1	/	18.1	-1.5	i	6.4	-0.7	-5.5	/
CC(C)OCCCNC(=O)CN1C(=O)/C(=C/c2ccccc2F)Oc2ccccc21	27.3	-14.9	-5.7	i	-3.8	-3.6	-12.0	-3.4
CCCCCn1c(CN2CCN(c3cc(Cl)ccc3C)CC2)nc2c1c(=O)[nH]c(=O)n2C	-61.2	111.8*	-7.5	i	-23.4	-21.3	3.8	7.2
